Cruzain inh Det = blocks cruzain activity in presence of Triton detergent; Potency, µM, for the others: max response, negative = inhibition, usual class: inhibitors; P25779; 200,000 tested, 0.43% active; purified cruzain, Z-FR-AMC fluorescence, 0.01% Triton;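 further: plate controls were neutral wells for no effect and buffer without enzyme for full effect; nearly all actives have a fitted effect of over 40% in size; top concentration of the series not given in the record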
Target sequence (P25779 123-467 limits assumed): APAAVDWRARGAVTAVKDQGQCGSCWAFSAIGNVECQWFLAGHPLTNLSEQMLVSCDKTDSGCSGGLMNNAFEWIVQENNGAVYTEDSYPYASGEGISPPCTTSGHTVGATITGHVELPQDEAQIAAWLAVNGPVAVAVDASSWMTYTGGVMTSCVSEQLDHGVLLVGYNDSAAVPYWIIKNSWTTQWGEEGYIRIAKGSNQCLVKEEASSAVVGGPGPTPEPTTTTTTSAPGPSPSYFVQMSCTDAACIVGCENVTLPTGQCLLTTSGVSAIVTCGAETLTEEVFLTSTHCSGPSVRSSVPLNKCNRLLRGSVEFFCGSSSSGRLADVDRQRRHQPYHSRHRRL
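Purified cruzain (1.5 nM final) was preincubated with compounds for 15 min at room temperature in 100 mM sodium acetate pH 5.5, 5 mM DTT, 0.01% Triton X-100. Reaction started with 2 uM Z-FR-AMC; AMC fluorescence change over 60 s gave activity.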
StopGo reporter = lowers the luciferase signal of an FMDV 2A StopGo reporter | human cells with a luciferase reporter of 2A StopGo recoding; control for the full effect not named in the record | Potency, µM (doses to about 57.9 µM), for inactives: at the highest dose signal change, negative = less light | 410,000 tested, 1.2% active; active = well fitted falling curve with a large enough effect; inconclusive = small, poorly fitted or top-dose-only effect; inactive = no such curve, though single readings can be large or run the other way; tested in HEK293T cells; further: on the % scale 0 is the no-effect control and ±100 the full control effect; nearly all actives have a fitted effect of over 45% in size; luciferase light after 4 h
MARV entry inh = inhibitors of Marburg virus binding or cell entry. Marburg virus pseudotyped entry inhibition, cell reporter; control for the full effect not named in the record; about a third of the inactives were read at about 46 µM. Potency, µM (titrated, usually from 37.8 µM), for inactives: top-dose activity change, negative = inhibition, most hits filed as inhibitors. 300,000 tested, 1.8% active; active = well fitted inhibition curve with a large enough effect; inconclusive = small, poorly fitted or top-dose-only effect, or effect the other way; inactive = flat fitted curve, though single readings scatter; tested in HEK293 cells; about a fifth of its hits are not listed in these tables; further: on the % scale 0 is the no-effect control and ±100 the full control effect; luciferase read-out
RE007 growth inh = less growth of the S. pombe RE007 Vpr strain | S. pombe RE007 Vpr strain, BacTiter-Glo ATP luminescence, 24 h; control for the full effect not named in the record | 360,000 tested, 0.21% active | Potency, µM (titrated, usually from 92.2 µM), without a hit: at the highest dose activity change, negative = less growth; active = well fitted falling curve with a large enough effect; inconclusive = small, poorly fitted or top-dose-only effect; inactive = no such curve, though single readings can be large or run the other way;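 further: on the % scale 0 is the no-effect control and ±100 the full control effect; nearly all actives have a fitted effect of over 50% in size; the assay follows cell death caused by Vpr and the record does not say whether a fall means rescue or toxicity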
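Fission yeast RE007 carrying one integrated HIV-1 vpr copy, seeded at OD 0.01 in PMG+AL medium with 23 nL pinned compound. Grown 24 h at 30 degrees; viability read by BacTiter-Glo luminescence after 5 min.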
SARS PLpro yeast = blocks SARS-CoV papain-like protease in a yeast assay; 330,000 tested, 0.19% active; S. cerevisiae expressing SARS-CoV PLpro, growth rescue; control for the full effect not named in the record; Potency, µM (top dose mostly 32.9 µM), without a hit: at the top dose activity, positive = growth rescue; active means well fitted rising curve with a large enough effect; inconclusive means small, poorly fitted or top-dose-only effect; inactive means no such curve, though single readings can be large or run the other way; further: 0% is about no effect; nearly all actives have a fitted effect of over 55% in size; growth read by luminescence after 48 h
Cruzain noTriton = cruzain (T. cruzi) inhibition without detergent. 200,000 tested, 2.3% active. P25779. purified cruzain, Z-FR-AMC fluorescence, no detergent. Potency, µM, for inactives: max response, negative = inhibition, usual class: inhibitors;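 further: plate controls were enzyme without inhibitor for no effect and buffer without enzyme for full effect; nearly all actives have a fitted effect of over 40% in size; top concentration of the series not given in the record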
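Detergent-free condition (0.00005% Triton X-100) in acetate buffer pH 5.5 with DTT. 1.5 nM enzyme and compound were pre-mixed 15 min, then 2 uM Z-FR-AMC substrate added; reaction progress from fluorescence change between first and third reads (60 s).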
NS1 function inh = inhibitors of influenza NS1 protein function | 270,000 tested, 0.4% active | S. cerevisiae slowed by influenza A NS1, growth recovery by OD600 | Potency, µM (titrated, usually from 46.1 µM), for inactives: at the highest dose activity, positive = more growth; active means well fitted rising curve with a large enough effect; inconclusive means small, poorly fitted or top-dose-only effect; inactive means no such curve, though single readings can be large or run the other way; further: nearly all actives have a fitted effect of over 50% in size
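A cell-based growth assay was used: compounds that relieve NS1-induced slow growth of budding yeast raise OD600. Assay medium was yeast nitrogen base with ammonium sulphate and -URA supplement, pH 6.0, with 2% galactose.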
Lassa entry inh = blocks Lassa virus binding to or entry into cells; Lassa virus pseudotype entry inhibition, cell reporter; control for the full effect not named in the record; Potency, µM (top dose mostly 37.9 µM), inactives show at the highest dose activity change, negative = inhibition, hits mostly inhibitors; 300,000 tested, 1.2% active; AID 540256; active means well fitted inhibition curve with a large enough effect; inconclusive means small, poorly fitted or top-dose-only effect, or effect the other way; inactive means flat fitted curve, though single readings scatter; tested in HEK293 cells; further: on the % scale 0 is the no-effect control and ±100 the full control effect; nearly all actives have a fitted effect of over 50% in size; luciferase read-out
Numbers without * were called inactive; [ ] = another dose, or the depositor's remark. Unless noted, the call rests on the fitted dose curve; in most records, active means well fitted curve in the direction sought with a large enough effect; inconclusive means small, poorly fitted or top-dose-only effect, or another doubt; inactive means no such curve, though single readings can be large; an effect the other way counts as inactive or inconclusive. Potency means the concentration at half of the fitted maximal effect.

How did COCCCNC(=O)CC(NS(=O)(=O)c1ccc(C)cc1)c1ccco1 (stereo not drawn) do in these assays?
Cruzain inh Det: -1.1%; StopGo reporter: -12.1%; MARV entry inh: inconclusive; RE007 growth inh: 0.2%; SARS PLpro yeast: 11.5%; Cruzain noTriton: 3.2%; NS1 function inh: 6.2%; Lassa entry inh: 4.7%

What do the screens show for `CCOc1ccc(N2CC(NC(=O)c3ccc(S(=O)(=O)N4CCCCC4)cc3)CC2=O)cc1` (stereo not drawn)?
Cruzain inh Det: 0.8%; StopGo reporter: -17.6%; Cruzain noTriton: -3.7%; Lassa entry inh: -8.2%[46.1 µM]

What do the screens show for `COc1ccc(C(=O)Oc2ccc(-c3nnco3)cc2)cc1S(=O)(=O)N1CCOCC1`?
StopGo reporter: -21.0%; MARV entry inh: -0.6%[46.1 µM]; RE007 growth inh: 10.8%; SARS PLpro yeast: -0.9%; Lassa entry inh: 12.5%

What do the screens show for `COc1ccc(C(CNC(=O)c2ccccc2SC)N(C)C)cc1` (stereo not drawn)?
StopGo reporter: 16.2%; MARV entry inh: 16.3%[46.1 µM]; RE007 growth inh: -1.5%; SARS PLpro yeast: -0.2%; Lassa entry inh: inconclusive

How did COC(=O)c1c(NC(=O)c2ccc(C)o2)sc2c1CCCCC2 do in these assays?
Cruzain inh Det: -11.3%; StopGo reporter: -6.4%; MARV entry inh: 5.2%; RE007 growth inh: 8.0%; SARS PLpro yeast: -19.4%; Cruzain noTriton: -4.7%; NS1 function inh: -46.0%; Lassa entry inh: inconclusive

How did Cc1ccc(OCCC(=O)Nc2ccccc2C(=O)N2CCCCC2)cc1 do in these assays?
StopGo reporter: -1.5%; MARV entry inh: 9.8%[46.1 µM]; RE007 growth inh: -20.0%; SARS PLpro yeast: 1.6%; Lassa entry inh: -3.5%

Results for Cc1cc(Cl)ccc1NC(=S)NCC(C)C ?
Cruzain inh Det: -3.2%; StopGo reporter: 23.3%; MARV entry inh: inconclusive; RE007 growth inh: 2.8%; SARS PLpro yeast: inconclusive; Cruzain noTriton: 0.8%; NS1 function inh: 5.9%; Lassa entry inh: 0.1%

What do the screens show for `Cc1ccc(S(=O)(=O)/C(C#N)=C/c2c(N3CCOCC3)nc3c(C)cccn3c2=O)cc1`?
StopGo reporter: 0.8%; MARV entry inh: -9.2%; RE007 growth inh: 4.6%; SARS PLpro yeast: -1.7%; NS1 function inh: 23.0%; Lassa entry inh: 5.6%

What do the screens show for `Cc1cccc(NC(=O)/C(C#N)=C\c2cccnc2)c1`?
Cruzain inh Det: -1.4%; StopGo reporter: 13.3%; MARV entry inh: inconclusive; RE007 growth inh: -8.0%; SARS PLpro yeast: 2.6%; Cruzain noTriton: -3.3%; NS1 function inh: -21.6%; Lassa entry inh: 8.6%

Results for CCOc1ccc(/C=C/C(=O)NCCc2ccc(OC)c(OC)c2)cc1 ?
Cruzain inh Det: -5.4%; StopGo reporter: 0.0%; MARV entry inh: 9.7%; RE007 growth inh: 4.0%; SARS PLpro yeast: 5.4%; Cruzain noTriton: inconclusive; NS1 function inh: 10.2%; Lassa entry inh: 0.3%

What do the screens show for `Cc1cc(=O)oc(C)c1C(=O)N1CCCc2ccccc21`?
Cruzain inh Det: 1.6%; StopGo reporter: 11.0%; MARV entry inh: -8.1%[46.1 µM]; RE007 growth inh: 22.9%; SARS PLpro yeast: -5.4%; Cruzain noTriton: -5.9%; NS1 function inh: 4.1%; Lassa entry inh: -13.0%

What do the screens show for `CC(=O)N1CCOc2cc(S(=O)(=O)N3CCN(c4ccccc4)CC3)c(Cl)cc21`?
StopGo reporter: 0.8%; RE007 growth inh: -0.2%; SARS PLpro yeast: -4.9%; NS1 function inh: -8.2%

Results for O=C(Nc1cccc(F)c1)C1CCN(C(=O)c2ccco2)CC1 ?
StopGo reporter: 12.2%; MARV entry inh: -11.8%[46.1 µM]; RE007 growth inh: 3.3%; SARS PLpro yeast: 2.0%; NS1 function inh: 6.8%; Lassa entry inh: 20.7%[46.1 µM]

How did COc1ccc2[nH]cc(C=O)c2c1 do in these assays?
Cruzain inh Det: 2.1%; StopGo reporter: 1.5%; MARV entry inh: inconclusive; RE007 growth inh: 14.7%; SARS PLpro yeast: 3.8%; Cruzain noTriton: 1.7%; NS1 function inh: -4.2%; Lassa entry inh: 1.0%

What do the screens show for `COCCCNC(=O)c1c[nH]c2ccc(S(=O)(=O)N(C)c3ccccc3C)cc2c1=O`?
StopGo reporter: inconclusive; MARV entry inh: -26.3%[46.1 µM]; RE007 growth inh: inconclusive; SARS PLpro yeast: 1.6%; NS1 function inh: -1.7%; Lassa entry inh: inconclusive

How did N#Cc1c(C#N)c(-c2ccccc2)n(-c2ccc(C(=O)O)cc2)c1N do in these assays?
Cruzain inh Det: 0.4%; StopGo reporter: 2.7%; MARV entry inh: inconclusive; RE007 growth inh: 5.9%; SARS PLpro yeast: 3.0%; Cruzain noTriton: 8.4%; NS1 function inh: 12.1%; Lassa entry inh: 2.0%

What do the screens show for `CCn1c(SCC(=O)Nc2c(C)cccc2C)nnc1-c1nonc1NC(C)=O`?
Cruzain inh Det: -2.6%; StopGo reporter: 2.5%; MARV entry inh: -7.6%[46.1 µM]; Cruzain noTriton: -10.3%; Lassa entry inh: -2.9%[46.1 µM]

How did CCN1CCN(c2nc3c(S(=O)(=O)c4ccc(C)cc4)nnn3c3ccsc23)CC1 do in these assays?
Cruzain inh Det: 1.0%; StopGo reporter: 25.2%; Cruzain noTriton: -7.4%; Lassa entry inh: 17.7%[46.1 µM]

What do the screens show for `CCN(CC)CCCC(C)Nc1nccc2cccc(Cl)c12` (stereo not drawn)?
StopGo reporter: -11.0%; MARV entry inh: inconclusive; RE007 growth inh: -19.1%; Lassa entry inh: inconclusive

What do the screens show for `CCOc1ncnc2c1sc1nc3c(cc12)COC(C)(C)C3`?
StopGo reporter: 3.3%; MARV entry inh: -2.8%; RE007 growth inh: 12.4%; Lassa entry inh: 16.7%

How did Cc1ccc2nc(SCC(=O)NCc3ccc(F)cc3)nc(=O)n2c1 do in these assays?
StopGo reporter: -10.1%; MARV entry inh: -2.1%; RE007 growth inh: -10.8%; SARS PLpro yeast: 3.6%; Lassa entry inh: -3.9%

Results for CCN(C(=O)COc1cc(=O)n(C)c2ccccc12)c1cccc(Cl)c1 ?
Cruzain inh Det: -1.8%; StopGo reporter: -29.4%; MARV entry inh: 1.1%; RE007 growth inh: 0.3%[3.69 µM]; SARS PLpro yeast: 1.0%; Cruzain noTriton: 19.3%; NS1 function inh: 5.6%; Lassa entry inh: -6.2%

What do the screens show for `O=C(/C=C/c1cccc(F)c1)Nc1ccc(S(=O)(=O)N2CCOCC2)cc1`?
StopGo reporter: inconclusive; MARV entry inh: inconclusive; RE007 growth inh: 2.2%; SARS PLpro yeast: -3.4%; Lassa entry inh: 17.6%

How did COc1cccc(C2=NOC(C(=O)Nc3cc(OC)c(OC)c(OC)c3)C2)c1 (stereo not drawn) do in these assays?
Cruzain inh Det: -1.4%; StopGo reporter: inconclusive; MARV entry inh: inconclusive; RE007 growth inh: -2.0%; SARS PLpro yeast: -4.6%; Cruzain noTriton: 1.9%; NS1 function inh: -5.4%; Lassa entry inh: -31.1%[14.3 µM]

What do the screens show for `Cc1ccc2c(=O)cc(C(=O)Nc3ccc(S(=O)(=O)N4CCCCC4C)cc3)oc2c1C` (stereo not drawn)?
Cruzain inh Det: -1.6%; StopGo reporter: -15.6%; MARV entry inh: 20.3%[46.1 µM]; Cruzain noTriton: -2.5%; Lassa entry inh: 4.8%[46.1 µM]

What do the screens show for `Oc1ccccc1Cl`?
Cruzain inh Det: 6.7%; StopGo reporter: -14.8%; RE007 growth inh: -11.2%; SARS PLpro yeast: -1.0%; Cruzain noTriton: 0.9%

How did CCC1(CC)Nc2ccccc2C(=O)N1c1ccc(OC)cc1 do in these assays?
StopGo reporter: 55.0%[activator]; RE007 growth inh: -14.2%; SARS PLpro yeast: -0.8%; NS1 function inh: -1.7%

How did COc1cccc2[nH]c3c(N4CCC(C)CC4)ncnc3c12 do in these assays?
Cruzain inh Det: -16.8%; StopGo reporter: -28.9%; MARV entry inh: -6.3%; RE007 growth inh: 9.8%; SARS PLpro yeast: -3.1%; Cruzain noTriton: -19.4%; NS1 function inh: -28.1%; Lassa entry inh: -0.6%

Results for COc1ccc(NC(=O)c2c(F)cccc2Cl)cc1S(=O)(=O)N1CCOCC1 ?
StopGo reporter: 21.3%; MARV entry inh: 18.5%; RE007 growth inh: 6.5%; SARS PLpro yeast: 7.8%; Lassa entry inh: inconclusive

Results for COc1ccc(C(O)P(=O)(Oc2ccccc2)Oc2ccccc2)cc1 (stereo not drawn) ?
StopGo reporter: 12.1%; MARV entry inh: -5.2%[46.1 µM]; RE007 growth inh: 6.2%; SARS PLpro yeast: -0.8%; NS1 function inh: 0.5%; Lassa entry inh: 12.2%

How did COc1ccc(-n2c(SCC(C)=O)nc3sc(C)c(C)c3c2=O)cc1 do in these assays?
StopGo reporter: -11.6%; RE007 growth inh: -3.4%; SARS PLpro yeast: -3.0%; NS1 function inh: 5.5%

How did Cc1ccc2oc(=O)c3cc(C(=O)NCc4ccc(Cl)cc4)sc3c2c1 do in these assays?
Cruzain inh Det: 0.5%; StopGo reporter: -5.0%; MARV entry inh: 8.9%[46.1 µM]; Cruzain noTriton: 7.6%; Lassa entry inh: inconclusive

What do the screens show for `COc1ccccc1NC(=O)CSc1nnc2c3ccccc3n(C)c2n1`?
Cruzain inh Det: -0.7%; StopGo reporter: -10.8%; Cruzain noTriton: -20.7%; Lassa entry inh: 17.6%[46.1 µM]

Results for COC(=O)c1ccsc1-n1cc(C#N)c(=O)n(C)c1=O ?
StopGo reporter: -6.0%; MARV entry inh: 1.1%; RE007 growth inh: 1.3%; SARS PLpro yeast: 1.6%; Lassa entry inh: -26.2%

What do the screens show for `CCOC(=O)c1c(NC(=S)N2CCOCC2)sc(C)c1C`?
StopGo reporter: -3.5%; MARV entry inh: -6.3%; RE007 growth inh: -5.1%; SARS PLpro yeast: -0.7%; NS1 function inh: 0.5%; Lassa entry inh: inconclusive

How did COc1ccc(Br)cc1[C@H]1[C@H]2C=CC[C@@H](C)[C@@H]2C(=O)N1Cc1ccccc1 do in these assays?
StopGo reporter: inconclusive; RE007 growth inh: 9.2%; SARS PLpro yeast: 0.0%; NS1 function inh: 12.3%

Screens from PubChem BioAssay.
